PABP FP inh = blocks human PABP binding to poly(A) RNA; AID 2014; P11940; fluorescence polarization; inhibition, % at 35 µM; 1% of 290,000 active;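 active = 50% or more with normal probe brightness, or confirmed in later tests; inconclusive = above 50% with abnormal brightness, or retests that disagree; inactive = below 50% or failed in later tests; about a fifth of its hits are not listed in these tables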;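 note: calls also rest on retests at 20 µM and on dose response follow-up; controls were probe without protein and protein plus probe with vehicle; some compounds called inactive have numbers as strong as hits; many hits fall short of the cut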
Target sequence (P11940 whole entry, looked up): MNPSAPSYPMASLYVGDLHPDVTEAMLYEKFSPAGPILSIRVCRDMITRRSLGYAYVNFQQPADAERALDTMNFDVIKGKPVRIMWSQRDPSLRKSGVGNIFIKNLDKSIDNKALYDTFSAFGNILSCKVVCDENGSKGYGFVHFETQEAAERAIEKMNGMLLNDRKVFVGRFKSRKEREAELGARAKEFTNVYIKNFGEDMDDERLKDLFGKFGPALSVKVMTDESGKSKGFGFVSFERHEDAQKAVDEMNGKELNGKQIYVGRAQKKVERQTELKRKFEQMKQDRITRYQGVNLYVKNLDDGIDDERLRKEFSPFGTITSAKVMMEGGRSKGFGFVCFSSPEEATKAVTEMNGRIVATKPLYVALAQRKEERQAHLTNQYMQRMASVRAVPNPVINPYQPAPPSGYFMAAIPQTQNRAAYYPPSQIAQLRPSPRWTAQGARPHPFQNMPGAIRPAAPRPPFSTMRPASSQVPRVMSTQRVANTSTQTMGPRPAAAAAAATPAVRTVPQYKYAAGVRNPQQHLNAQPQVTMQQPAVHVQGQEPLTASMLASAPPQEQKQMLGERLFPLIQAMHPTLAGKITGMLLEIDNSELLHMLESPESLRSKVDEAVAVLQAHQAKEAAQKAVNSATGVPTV
MT1-MMP act inh = MT1-MMP (human) activation inhibition. P50281. HT1080 RFP-PRO-GFP cells, GFP/RFP ratio fluorescence, overnight; percent of plate control window, DMSO zero. GFP/RFP ratio change, % at 20 µM. 0.061% of 360,000 active. AID 651647;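 active = GFP/RFP ratio change of at least 30% with cell ATP level not reduced by more than half and red fluorescence within 50% of control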; note: strong numbers were not always called active
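Assay system: RFP-PRO-GFP reporter HT1080 cells; read-out basis: GFP/RFP fluorescence ratio; benchmarks: DMSO wells and RFP-L50D-GFP cells; doses: 20 µM single dose, 1% DMSO; schedule: overnight cell settling, then overnight compound exposure, 37 °C, 5% CO2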
CSC inhib = blocks cancer stem cells. cancer stem cell-like cells viability, luminescence. inhibition, % at 7.5 µM. 1.1% of 300,000 active. AID 2717;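 active = mean at 75% or more and at least half the replicates too; inconclusive = mean and replicates disagree; tested in HMLE shEcad cells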;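 note: 0% = median of negative and 100% = median of positive control wells; the first replicate is given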
HIV Env fusion = blocks HIV Env-driven cell-cell fusion | HeLa-JRFL Env/CEM21 cell fusion, luciferase | inhibition, % at 12.3 µM | 1.1% of 360,000 active | AID 651610;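 active = mean replicate inhibition score of at least 50 and every replicate individually at or above 50; inconclusive = only one of the two criteria met; inactive = mean below 50 and not all replicates reaching 50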;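 note: 0% = plate neutral controls and 100% = maraviroc near 300 nM; one replicate is shown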
UUG fidelity = yeast start codon fidelity modulation. S. cerevisiae UUG-firefly luciferase reporter, luminescence/redox ratio. activity score, % at 18.7 µM. 0.13% of 350,000 active. AID 602363;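 active = replicate mean at a twofold rise or more, about +100% in these data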;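 note: firefly luciferase made from a UUG start codon reports start codon fidelity; reporter light over untreated wells divided by growth signal over untreated wells; some hits fall short of that in this replicate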
eIF4H FP inh = inhibitors of RNA binding by human eIF4H | eIF4H fluorescence polarization binding assay | inhibition, % at 35 µM | 0.94% of 290,000 active | AID 2012;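 active = 50% or more with normal probe brightness, or confirmed in later tests; inconclusive = above 50% with abnormal brightness, or retests that disagree; inactive = below 50% or failed in later tests; about a fifth of its hits are not listed in these tables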;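 note: calls also rest on retests at 20 µM and on dose response follow-up; 0% = protein and probe with vehicle and 100% = probe without protein; strong numbers were not always called active; many hits fall short of the cut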
Rce1 inh = blocks yeast Ras-converting enzyme; yeast membranes, quenched prenylated peptide cleavage fluorescence; calls only; 0.27% of 290,000 active;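 active = fall in fluorescence gain of 50% or more versus controls, with final raw signal at or below 3038400; inconclusive = same 50% fall but final raw signal above 3038400; inactive = fall in fluorescence gain under 50%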;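 note: plate controls were neutral control wells for no effect and wells lacking membranes for full effect; tested at 10 µM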
eIF4H FP inh retest = second read-out of eIF4H FP inh, no call of its own (marks repeat the call); inhibition, %; compound at 20 µM; confirmation average;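 mean of two retest wells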
PABP FP inh retest = also measured in PABP FP inh; calls as there; inhibition, %; compound at 20 µM; confirmation repeats;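 mean of two retest wells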
MT1-MMP act inh RFP = recorded beside MT1-MMP act inh, whose call it bears; RFP signal change, %; measured here: RFP expression control read;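 0 = vehicle wells; hits needed this value within 50% of zero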
The depositor's hits bear a star; i = inactive; ? = inconclusive; / = not tested or not shown; & = joins results of further samples.

SMILES | PABP FP inh | MT1-MMP act inh | MT1-MMP act inh RFP | CSC inhib | HIV Env fusion | UUG fidelity | eIF4H FP inh | Rce1 inh | others
COc1ccc2cc(C(C)C(=O)N3CCC(C(N)=O)CC3)ccc2c1 (configuration not stated) | 7 | -2 | 0 | 3 | 12 | -12 | -6 | i
CN(C)c1ccc(SC#N)cc1 | -2 | 1 | 4 | / | 0 | / | 2 | i
O=C1Nc2cc(C(=O)N3CCN(c4ccc(F)cc4)CC3)ccc2NC1CSCc1cccc(F)c1 (configuration not stated) | 22 | -72 | 1 | 19 | 0 | -12 | 51 | i | eIF4H FP inh retest=-16;PABP FP inh retest=11
O=C(NCC(c1ccc(F)cc1)N1CCOCC1)c1c(F)cccc1F (configuration not stated) | 8 | 2 | 8 | -2 | 4 | -1 | 0 | i
Cc1ccc(S(=O)(=O)/N=C/c2ccco2)cc1 | 7 | 5 | 5 | -13 | / | -19 | -2 | i
COc1ccc(C(=O)N[C@H](C(=O)OCn2nnc3ccccc3c2=O)C(C)C)cc1 | / | 0 | 5 | / | 24 | -4 | / | /
Cc1cc(C)n(-c2nc(NCc3cccnc3)c3c4c(sc3n2)COC(C)(C)C4)n1 | 10 | -1 | 1 | 0 | / | -5 | -6 | i
COc1ccc(NC(=O)CSc2nc(NS(=O)(=O)c3ccccc3)cc(=O)[nH]2)cc1 | 18 | -4 | -2 | / | 17 | / | 63 | i | eIF4H FP inh retest=-8;PABP FP inh retest=8
CCC1CCc2c(sc(NC(=O)c3ccoc3C)c2C(N)=O)C1 (configuration not stated) | 17 | -3 | -4 | 33 | / | -8 | 2 | i
O=C(NCCCl)NNc1c(Cl)cc(Cl)cc1Cl | 6 | -3 | 1 | / | 1 | -9 | -21 | i
CCOc1ccc(S(=O)(=O)Nc2cc(SCC(=O)O)c(O)c3ccccc23)cc1 | 12 | -10 | 4 | / | 4 | -25 | -5 | i
Cc1ccc(S(=O)(=O)Nc2ccc(C(=O)NCc3cccnc3)cc2)cc1 | -10 | -1 | 1 | 5 | -37 | -16 | -22 | i
CC(=O)Nc1ccc(NC(=O)c2ccccc2N(C)S(=O)(=O)c2ccc(C)cc2)cc1 | 0 | -1 | 1 | 1 | 10 | 4 | 6 | i
Nc1c(N2CCN(c3ccccc3)CC2)c2ccccc2oc1=O | -8 | -13 | -11 | -5 | ? | -16 | -3 | /
COc1ccc(C(CNC(=O)c2cc(F)c(F)c(F)c2F)N2CCOCC2)cc1 (configuration not stated) | 2 | -3 | 4 | 1 | -15 | / | -13 | i
C[C@H](CO)N1C[C@H](C)[C@@H](CN(C)C)Oc2c(NS(=O)(=O)c3cccs3)cccc2C1=O | / | -1 | 0 | 7 | -36 | 1&-8 | / | /
CC(=O)c1sc(NC(=O)CCNC(=O)c2ccco2)nc1-c1ccccc1 | 12 | -4 | -3 | -7 | 62* | -1 | -14 | i
C=CCn1c(N)c(-c2nc3ccccc3n2C)sc1=S | 10 | 7 | 7 | 5 | -72 | / | 6 | i
Cc1ccc(OCC(=O)Nc2cccc(C)n2)c(C)c1 | 2 | -1 | -4 | 31 | -238 | -14 | -1 | i
Cc1ccc(NC(=O)c2sc3nc(CCl)[nH]c(=O)c3c2C)c(C)c1 | -4 | 2 | 4 | / | -7 | / | -9 | /
Cc1cc(OCC(=O)NCCCN(C)C)cc(C)c1Br | -8 | 0 | 3 | 10 | / | -4 | -2 | i
S=c1[nH]nc(Cc2ccc(Cl)cc2)n1-c1ccc2c(c1)OCCO2 | 11 | -1 | -5 | -21 | 5 | / | 3 | /
O=C(Nc1ccc([N+](=O)[O-])cn1)c1ccc(Br)o1 | -11 | -8 | -1 | -5 | -18 | 0 | -6 | i
O=[N+]([O-])c1ccc(O)c(/C=N/NC(=S)Nc2ccc(Cl)cc2Cl)c1 | 10 | -11 | -24 | 76* | 31 | -30 | 32 | /
Cc1c(C(=O)OCC(=O)NC2CC2)oc2ccc(Br)cc12 | / | 9 | 4 | / | -1 | -19 | / | /

Carrying on:
SMILES | PABP FP inh | MT1-MMP act inh | MT1-MMP act inh RFP | CSC inhib | HIV Env fusion | UUG fidelity | eIF4H FP inh | Rce1 inh | others
O=C(O)c1cccnc1Sc1ccc(Br)cc1 | 6 | -1 | 2 | -9 | -3 | 3 | -7 | i
CN(C(=O)C1Cc2c(-c3ccc(Cl)cc3)ccnc2O1)c1ccccc1 (configuration not stated) | / | -1 | -3 | / | 0 | 0 | / | /
O=[N+]([O-])c1ccc(S(=O)(=O)Nc2ccc3c(c2)OCCO3)cc1 | -1 | 2 | -6 | 3 | -5 | -11 | -2 | i
O=C1NC(Cc2ccccc2)c2nc3cc(Cl)ccc3c(=O)n2-c2ncccc21 (configuration not stated) | / | -9 | -5 | / | -35 | -7 | / | /
COc1cc(/C=C/c2cc[n+](C)cc2)ccc1OCC(=O)Nc1ccc(Cl)c(Cl)c1 | 35 | -16 | -19 | / | 2 | 21 | 29 | i
Cc1cc(C)cc(OCC(=O)NNC(=S)NC(=O)C2CC2)c1 | 0 | 9 | 5 | -5 | 5 | -20 | 18 | i
O=C(Nc1ccccc1)OCCCCOC(=O)Nc1ccccc1 | / | -7 | 1 | / | 1 | -17 | / | /
Cc1cccc2[nH]c(SCC(=O)O)nc12 | 7 | 0 | 3 | 1 | 1 | / | 0 | i
CC(=O)c1cccc(NC(=O)c2cc(C)no2)c1 | 1 | 1 | 2 | -5 | 4 | -17 | -3 | i
O=C1NCCN1CCNS(=O)(=O)c1cc(C(F)(F)F)cc(C(F)(F)F)c1 | -3 | -1 | -1 | 0 | -8 | -19 | -6 | i
O=C(COc1ccc(Cl)cc1Cl)NCc1ccco1 | 1 | 8 | 5 | 6 | / | -8 | -9 | i
O=C(c1cnn2c(C(F)F)cc(C3CC3)nc12)N1CCc2ccccc2C1 | -5 | / | / | -6 | / | 0 | -4 | i
c1ccc(C2(c3ccccc3)OCC(Cn3cncn3)O2)cc1 (configuration not stated) | -1 | 2 | 2 | 1 | / | -13 | -16 | i
O=C(c1ccccc1)c1cnc(Nc2ccc(Cl)c(Cl)c2)s1 | -4 | 8 | 6 | -14 | -83 | -9 | 0 | i
Cc1ccc(C2=N/C(=C\c3cccs3)C(=O)N2Nc2ccccc2)cc1 | 4 | 5 | -4 | 35 | / | / | -4 | i
CC(C)NC(=O)CCCOc1ccc(Cl)cc1Cl | 2 | -2 | -1 | -15 | / | -7 | -4 | i
CCCCn1c(SCc2nc(N)nc(Nc3ccccc3C)n2)nc2ccccc2c1=O | -1 | 4 | 3 | -11 | / | / | 3 | i
Cc1ccc2sc(NC(=O)CN3C(=O)c4ccccc4C3=O)nc2c1C | -1 | 2 | 1 | -5 | 18 | -24 | -4 | i
C[C@H](NC(N)=O)C(=O)Nc1ccc(OCc2ccccc2)cc1 | -8 | 2 | 5 | -6 | 0 | / | 6 | i
CC(C)C1=CC2=CCC3C(C)(C(=O)O)CCCC3(C)C2CC1 (configuration not stated) (tested in a mixture with another compound) | -3 | / | / | 19 | / | / | 1 | i
CCC(=O)N1CCc2cc(S(=O)(=O)CCC(=O)NCc3ccc4c(c3)OCO4)ccc21 | 15 | 5 | 3 | -16 | -3 | -6 | -8 | i
CNC(=S)Nc1ccc(Cc2ccncc2)cc1 | -3 | 3 | 6 | -9 | -4 | -21 | -9 | i
COC(=O)c1cc(Br)ccc1NC(=O)Nc1ccccc1 | 3 | 3 | 8 | -2 | -15 | -12 | 1 | i
Fc1ccc2cnc(-c3ccccc3)c(-c3cc(C(F)(F)F)cc(C(F)(F)F)c3)c2c1 | / | -2 | -5 | / | 34 | -19 | / | /
Cc1cc(C)c(NC(=O)CN2CCN3CCCC3C2)c(C)c1 (configuration not stated) | 1 | -7&-5 | -1&0 | -4 | 8&-11 | -16 | -5 | i

Brought forward from above: 7 entries; new compounds follow.
SMILES | PABP FP inh | MT1-MMP act inh | MT1-MMP act inh RFP | CSC inhib | HIV Env fusion | UUG fidelity | eIF4H FP inh | Rce1 inh | others
C[C@H](NC(N)=O)C(=O)Nc1ccc(OCc2ccccc2)cc1 | -8 | 2 | 5 | -6 | 0 | / | 6 | i
CC(C)C1=CC2=CCC3C(C)(C(=O)O)CCCC3(C)C2CC1 (configuration not stated) (tested in a mixture with another compound) | -3 | / | / | 19 | / | / | 1 | i
CCC(=O)N1CCc2cc(S(=O)(=O)CCC(=O)NCc3ccc4c(c3)OCO4)ccc21 | 15 | 5 | 3 | -16 | -3 | -6 | -8 | i
CNC(=S)Nc1ccc(Cc2ccncc2)cc1 | -3 | 3 | 6 | -9 | -4 | -21 | -9 | i
COC(=O)c1cc(Br)ccc1NC(=O)Nc1ccccc1 | 3 | 3 | 8 | -2 | -15 | -12 | 1 | i
Fc1ccc2cnc(-c3ccccc3)c(-c3cc(C(F)(F)F)cc(C(F)(F)F)c3)c2c1 | / | -2 | -5 | / | 34 | -19 | / | /
Cc1cc(C)c(NC(=O)CN2CCN3CCCC3C2)c(C)c1 (configuration not stated) | 1 | -7&-5 | -1&0 | -4 | 8&-11 | -16 | -5 | i
COc1ccc(-c2onc(C)c2-c2cscn2)c(O)c1 | -6 | -2 | -5 | 3 | 17 | / | -3 | i
Cc1nnc(SCC(=O)c2ccccc2F)n1Cc1ccccc1 | -7 | -1 | 0 | -21 | -4 | / | -6 | i
c1nc(C2CCCCC2)cc2cc3c(cc12)OCO3 | / | 2 | 4 | / | -106 | -2 | / | /
COc1ccc(OCC2CCNCC2)cc1 | -6 | -2 | -1 | -8 | 2 | -19 | -6 | i
Cc1cc(C(=O)N2CCN(c3ccc([N+](=O)[O-])cc3)CC2)n[nH]1 | -16 | -5 | -9 | -7 | 10 | -14 | -8 | i
O=C(Nc1ccccc1)N1CCN(c2nc3ccccc3s2)CC1 | 11 | 8 | -5 | -5 | 50 | -10 | 0 | i
Cc1c(C(=O)NCc2cccnc2)oc2c1C(=O)CC(C)(C)C2 | 1 | 2 | -2 | -1 | -10 | -8 | 3 | i
COc1cc(OC)cc(C(=O)NC(C(=O)N2CCc3ccccc3C2)C(C)C)c1 (configuration not stated) | -3 | -4 | -7 | 8 | 16 | 6 | -3 | i
O=C(O)Cc1nn(Cc2ccc(Cl)cc2)c(=O)c2ccccc12 | -2 | 6 | 3 | -4 | 10 | -1 | 9 | i
Cc1nc(N(C)C)c2sc(=S)n(Cc3ccccc3)c2n1 | -4 | -3 | 0 | 13 | 10 | / | 23 | i
COc1ccc(OC)c(Cc2nnc(CCC(=O)NC3CCCCCCC3)o2)c1 | -11 | 1 | -3 | -9 | 5 | 5 | -1 | i
Cc1ccc(Cl)cc1N(CC(=O)NC1CCCCC1)S(C)(=O)=O | -4 | 0 | -1 | -11 | 24 | -10 | -8 | /
CN1CCN(c2ccccc2NC(=O)c2ccc(N3CCCCC3)c([N+](=O)[O-])c2)CC1 | 2 | 1 | -7 | / | 7 | -11 | -3 | i
N#C/C(=C\c1cc(Cl)ccc1O)C(=O)NC1CCCCC1 | -7 | 5 | 8 | 12 | / | / | 3 | i
CNCC(O)c1ccc(OC(=O)C(C)(C)C)c(OC(=O)C(C)(C)C)c1 (configuration not stated) | / | 0 | 0 | -6 | -14 | 2 | / | /
Cc1noc(C)c1CSc1ccccc1C(=O)OC(C)C(N)=O (configuration not stated) | 6 | 1 | 1 | -4 | -1 | -1 | -3 | i
O=C(COc1cccc(Oc2ccccc2)c1)Nc1ccc(SC(F)F)cc1 | -1 | 1 | -7 | 69 | -63 | -12 | 7 | i
